# Assay outcomes: PubChem, PCMD
# Biofilm kill mix – mixture kills Candida albicans biofilm cells; C. albicans biofilm persisters + clotrimazole, fluorescence viability; primary screen in compound mixtures of four per well; inhibition, % at 7.6 µM; 120,000 compounds, 0.02% hits; AID 1242;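 active means inhibition above 30.3% in the primary screen of four-compound pools, then above 30% when the compound was retested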;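 further: compounds exposed to preformed 24 h biofilms for 48 h; the number belongs to the whole pool; some results filed as inactive read as strong as hits; inactives centre near 12; 0% = biofilm with clotrimazole alone and 100% = kill control; retested singly at about 60 µM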
#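 Incubation: 24 h biofilm formation, then 48 h compound exposure, 37 °C | Material: C. albicans biofilms | Buffer or medium: RPMI/MOPS medium, pH 7.0 | Measured by: 2-h Alamar Blue fluorescence, 535/590 nm excitation/emission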
# * = called active by the depositor. A portion of the library (hit frequency here may not be typical).
SMILES	Biofilm kill mix
Cc1ccc(C(=O)N/C(=C\c2ccc(Cl)cc2)C(=O)NCC2CCCO2)cc1 (configuration not stated)	7
c1ccc(C2=Nn3c(nnc3-c3ccco3)SC2)cc1	-7
COC(=O)C1=C(C)Nc2c(c(=O)n(C)c(=O)n2C)C1c1cccc(O)c1 (configuration not stated)	11
CC(C)CNC(=O)CSc1nnc(-c2ccc(Cl)cc2)n1N	-6
COc1ccc(N2C(=O)NC3CC2(C)Oc2ccccc23)cc1 (configuration not stated)	22
O=C(Nc1cc(S(=O)(=O)N2CCOCC2)ccc1N1CCOCC1)c1cccc(S(=O)(=O)N2CCCCC2)c1	14
CC(=O)c1cccc(S(=O)(=O)NCCC(=O)O)c1	3
COc1ccc(NC(=O)c2ccccc2CC[N+](=O)[O-])cc1	-2
Cc1c(NC(=O)c2nn3c(C(F)(F)F)cc(-c4ccccc4)nc3c2Br)c(=O)n(-c2ccccc2)n1C	4
CC(=O)N1CCCC1(C(=O)O)c1ccccc1 (configuration not stated)	16
Cc1cc(C(=O)N/N=C/c2cccc([N+](=O)[O-])c2)c(C)n1-c1ccccc1	11
COc1cc(C(=O)NCc2ccc(-n3cccc3)cc2)cc(OC)c1OC	10
COc1ccc(/C=N/Nc2nc(=O)[nH]nc2C)cc1OC	25
CCC/C(=N\NC(=O)CNC(=O)/C=C/c1ccco1)c1ccccc1	12
COc1ccc(CCNC(=O)Cc2cccs2)cc1OC	22
C=CCOC(=O)C1=C(C)NC(=O)NC1/C=C/c1ccccc1OC (configuration not stated)	12
O=[N+]([O-])c1ncn(C23CC4CC(CC(C4)C2)C3)n1	29
Cc1cccc(C)c1NC(=S)N/N=C/c1c(Cl)cccc1Cl	5
CC1(C)CC(=O)C(=Cc2cn(CCC#N)nc2-c2ccc(Cl)cc2)C(=O)C1	16
Cc1ccccc1OCc1nnc(SCC(=O)Nc2ccc3nc(SCC(=O)Nc4ccccc4)sc3c2)n1C	8
COc1ccc(N2C(=O)C(F)(F)C2c2cccc(F)c2)cc1 (configuration not stated)	5
COc1ccc2oc3cc(C)[n+]([O-])c(-c4ccc(C)cc4)c3c2c1	8
N#CC(C#N)=NNc1ccc([N+](=O)[O-])cc1	8
O=C(O)c1ccccc1-c1ccccc1C(=O)Nc1cccc(-c2nc3ccccc3o2)c1	22
CCOC(=O)CSc1nc(C)nc2c1sc1nc(C)c(C(C)=O)c(-c3ccc(OC)cc3)c12	11
O=C(c1ccccc1O)N1N=C(c2ccccc2)CC1(O)C(F)(F)F (configuration not stated)	1
COc1ccccc1CNc1ncnc2cc(Cl)ccc12	16
NNC(=O)C1CC1c1ccccc1 (configuration not stated)	4
CN(C)CCCN(C(=O)COc1ccccc1)c1nc2ccc(F)cc2s1	17
Cc1ccc(C(=O)O)cc1-c1ccc(C=C2C(=O)c3ccccc3C2=O)o1	-12
Cc1cc2c(ncn2C)c(NS(=O)(=O)c2ccc(Cl)cc2)c1C	18
Cc1ccccc1NS(=O)(=O)c1ccc(C(=O)N2CCN(c3ccccn3)CC2)cc1	9
COc1ccc(NC(=O)Nc2cccc(Cl)c2Cl)c(OC)n1	14
Cc1c(C(=O)NCCSCc2ccco2)cccc1[N+](=O)[O-]	20
COc1ccc2c(n1)Sc1nc3ccccc3nc1N2	13
CCc1ccc(NC(=O)C2C3C=CC(C4CC34)C2C(=O)O)cc1 (configuration not stated)	19
COc1ccc(NS(=O)(=O)c2cc(NC(=O)c3ccco3)ccc2N2CCCC2)cc1	4
CCN(CC)C(=O)CSc1nc2ccccc2c(=O)n1CCC(=O)N1CCN(c2ccccc2)CC1	20
Nc1c(C(=O)Nn2cnnc2)cc([N+](=O)[O-])cc1[N+](=O)[O-]	-2
O=C(/C=C/c1cc(Br)ccc1O)c1ccco1	25
CC(=O)c1ccc(N/N=C(/C(N)=O)C2=NC(C)(C)Cc3ccccc32)cc1	1
Cc1ccc2nc(Cl)c(C3CC(c4cccs4)=NN3C(=O)CCCC(=O)O)cc2c1 (configuration not stated)	6
Cc1cccc(C)c1Nc1c(-c2ccc(N3CCOCC3)cc2)nc2cnccn12	9
O=C(CC1SC(=O)N(c2ccccc2)C1=O)Nc1ccc(Cl)cc1 (configuration not stated)	7
CCOc1cc(C(=O)OCC(=O)Nc2c(C)cccc2C)ccc1OCC(=O)N1CCOCC1	13
Cc1ccccc1C(=O)Nc1nnc(-c2ccco2)o1	2
N#Cc1ccc(C(=O)Nc2nnc(-c3ccccn3)o2)cc1	12
Clc1cccc(CSc2ccc(-c3ccco3)nn2)c1	4
COc1ccc(NS(=O)(=O)c2cc(NC(=O)/C=C/c3ccccc3OC)ccc2N2CCCCC2)cc1	18
CC(=O)c1c(C)[nH]c(C(=O)Nc2nc(-c3ccc(Cl)cc3)cs2)c1C	10

# The results go on:
SMILES	Biofilm kill mix
CCOC(=O)c1c(NC(=O)C2C3CCC(O3)C2C(=O)O)sc2c1CCC(CC)C2 (configuration not stated)	6
O=C(COC(=O)c1ccc(=O)[nH]c1)Nc1cccc(S(=O)(=O)N2CCOCC2)c1	9
Cc1ccc(S(=O)(=O)N2CCC(=O)N(C(COCc3ccc(Cl)cc3)C(C)C)CC2)cc1 (configuration not stated)	15
O=C(COc1ccccc1)N/N=C/c1ccc(O[C@@H]2O[C@H](CO)[C@@H](O)[C@H](O)[C@H]2O)cc1	11
CC(C)(O)C#Cc1ccc(CN2CCN(C3CCCC3)C(CCO)C2)cc1 (configuration not stated)	-7
CC(C)CCc1noc(CN2CCC(CCN3CCCC3=O)CC2)n1	9
O=c1cc(NCC2CCCO2)[nH]c(=O)n1-c1ccc(Cl)cc1 (configuration not stated)	6
COc1c(Cl)cc(-c2noc(C)c2C(=O)NC(C)C)cc1Cl	12
O=C1CCC2=C(CCCC2=O)N1	-4
CCCCNC(=S)NCCN1CCCCC1	8
COc1ccc(N(CC(=O)Nc2cccc(N(C)S(C)(=O)=O)c2)S(=O)(=O)c2ccc(C)cc2)cc1	11
COc1ccc(CN2CCN(C(C)C)C(CCO)C2)cc1Cn1cncn1 (configuration not stated)	10
Oc1c(Br)cc(C=Nc2ccc3nc(-c4ccccc4)[nH]c3c2)c(O)c1Br	15
CCOc1ccccc1NC(=S)Nc1ccc(S(N)(=O)=O)cc1	20
N#C/C(=C\c1ccc(-c2cccc([N+](=O)[O-])c2)o1)C(=O)N1CCOCC1	25
CCCC(=O)Nc1ccc(NC(=O)c2ccccc2)nc1	25
CCOC(=O)NC1(C(F)(F)F)C(=O)NC(C)=C1C#N (configuration not stated)	8
O=C(Nc1ccccc1)C1CC(=O)n2c(nc3ccccc32)N1 (configuration not stated)	10
Cc1cc(NC(=O)CSc2nc3ccccc3[nH]2)n(-c2ccccc2)n1	16
CC(=O)NCCc1nc2ccccc2n1Cc1ccc(Cl)cc1	10
CN(C)c1cccc(C(=O)N/N=C/c2ccccc2F)c1	15
COc1ccc(NC(=O)CSc2nnnn2C)c([N+](=O)[O-])c1	14
COc1ccc2c(c1)CCc1c-2nc2ccccc2c1N1CCOCC1	23
CCCC(=O)NC(=S)Nc1nc(-c2ccc(OC)cc2)cs1	15
Cc1ccccc1NC(=S)NNC(=O)c1cccc(Br)c1	10
COC(=O)c1ncccc1SC	12
Cc1nc(N2CCN(S(=O)(=O)c3ccc(Br)cc3)CC2)c2c(C)c(C)sc2n1	16
CCCN(CCC)C(=O)Cn1c(=O)n(CCCC(=O)NCc2ccco2)c(=O)c2sccc21	8
Cn1cccc1/C=N/NC(=O)CSc1nc2ccccc2n1C	11
CCOC(CNC(=O)c1ccc2c(c1)ncn2-c1ccc(F)c(F)c1)OCC	16
O=C1N=c2ccccc2=C1c1sc(=S)n(NC(=O)c2cccc(O)c2)c1O	27
COc1ccc(NC(=O)N2CCN(c3ccc([N+](=O)[O-])cc3)CC2)cc1	6
CC1CC(C)CN(C(=S)Nc2ccc(SC(F)F)cc2)C1 (configuration not stated)	25
Cc1cccc(S(=O)(=O)Nc2nc3ccccc3nc2NCc2ccc3c(c2)OCO3)c1	18
O=C(c1ccccn1)N1N=C2/C(=C/c3ccccc3)CCCC2C1c1ccccc1 (configuration not stated)	8
Cc1[nH]c2ccccc2c1CN1CCN(c2ccccn2)CC1	4
Cc1c(N=C2N=C(NC(=O)c3ccc(F)cc3)c3ccccc32)c(=O)n(-c2ccccc2)n1C	12
Cc1ccc(N(Cc2cc3ccc(C)cc3[nH]c2=O)C(=O)c2ccco2)cc1	13
CCC(=O)NC(=S)Nc1ccc(NC(=S)NC(=O)c2ccc(C)cc2)cc1	5
O=C(c1cccs1)N1CCCC(c2nc3c(nnn3Cc3ccccc3)c(=O)[nH]2)C1 (configuration not stated)	13
c1cc2c(cc1-c1[nH]ncc1CN1C[C@H]3CC[C@H]1C3)OCO2	-4
CC(C)NC(=O)CSc1nc2ccccc2n1CC(=O)N(C(C)C)C(C)C	14
Cn1cccc1CNC(=S)Nc1ccccc1F	8
CC(C)(C)c1ccc(-n2nc(C(N)=O)c(O)cc2=O)cc1	16
COc1ccc(C(=O)c2c(C)c3cc(C)ccc3n2CC(O)CN2CCOCC2)cc1 (configuration not stated)	7
OC(CNCc1ccc(-c2ccccc2)cc1)c1ccccc1 (configuration not stated)	11
Cc1csc(C(C)N(C)C(=O)CCc2nnc(CCc3ccccc3)o2)n1 (configuration not stated)	23
Cc1c(C(=O)N(Cc2ccccc2)Cc2cccs2)cnn1-c1ccc(Cl)cc1	15
CCCCOc1ccc([N+](=O)[O-])cc1C(=O)O	13
COc1cccc(CN2CCN(C3CCN(c4cccc(C)c4C)CC3)CC2CCO)c1 (configuration not stated)	22

# The listing continues.
SMILES	Biofilm kill mix
COc1ccc(CC(=O)NNc2ncnc3c2cnn3C)cc1	6
CCN(Cc1ccccc1)C(=O)c1c[nH]c2ccc(S(=O)(=O)N(C)CCC#N)cc2c1=O	6
Cc1ccc(Nc2c(-c3ccc(N4CCOCC4)cc3)nc3ncccn23)cc1C	1
Cc1cc(C)nc(N2N=C(C(F)(F)F)CC2=O)n1	12
CC(=O)N/C(=N\OCc1ccccc1Cl)c1nonc1NC(C)=O	12
Brc1cccc(CSc2nnc(-c3ccncc3)o2)c1	12
CCC1CSC(Nc2ccc(C(=O)/C=C/c3ccc(OC)c(OC)c3)cc2)=N1 (configuration not stated)	7
O=C1C2C3C=CC(C4CC34)C2C(=O)N1CCc1ccccc1 (configuration not stated)	15
S=c1[nH]nc(CCc2ccccc2)n1-c1ccccc1	6
CCN(CC)S(=O)(=O)c1ccc(N=Cc2c(C)c(C#N)c(=O)n(C)c2O)cc1	4

# Compounds above with a cyano group:
SMILES	Biofilm kill mix
CC1(C)CC(=O)C(=Cc2cn(CCC#N)nc2-c2ccc(Cl)cc2)C(=O)C1	16
N#CC(C#N)=NNc1ccc([N+](=O)[O-])cc1	8
N#Cc1ccc(C(=O)Nc2nnc(-c3ccccn3)o2)cc1	12
N#C/C(=C\c1ccc(-c2cccc([N+](=O)[O-])c2)o1)C(=O)N1CCOCC1	25
CCOC(=O)NC1(C(F)(F)F)C(=O)NC(C)=C1C#N (configuration not stated)	8
CCN(Cc1ccccc1)C(=O)c1c[nH]c2ccc(S(=O)(=O)N(C)CCC#N)cc2c1=O	6
CCN(CC)S(=O)(=O)c1ccc(N=Cc2c(C)c(C#N)c(=O)n(C)c2O)cc1	4

# (further entries)
SMILES	Biofilm kill mix
Cn1nc(CSc2ccccc2)c(C=O)c1Cl	17
O=S(=O)(c1ccc(Cl)cc1)N1CCCN(c2nc3ccc(Cl)cc3s2)CC1	1
CCCCCCCCC(=O)N/N=C(\C)c1ccc(O)cc1O	20
Cc1cc2c(C)nc(N/N=C/c3ccc([N+](=O)[O-])cc3)nc2o1	9
COc1ccc(C2CC(C(F)(F)F)n3nc(C(=O)Nc4c(C)n(C)n(-c5ccccc5)c4=O)c(Cl)c3N2)cc1 (configuration not stated)	16
O=C(CN1CCCCC1)Nc1ccc(N2CCCCCC2)cc1	33
Cn1c(=O)c2c(nc(Cl)n2CC(=O)N2CCCCC2)n(C)c1=O	5
O=C(CCCN1C(=O)/C(=C\c2cccs2)SC1=S)NNC(=O)c1ccncc1	14
CCc1nc2sc3c(O)cc(=O)[nH]c3c2cc1C	15
CCOc1ccc(S(=O)(=O)NC2CC2)cc1C(N)=O	11
COc1cc(C2CC(=O)c3c(O)cc(O)cc3O2)ccc1O (configuration not stated)	17
CCOc1ccc(C(=O)Nc2cc(NC(=O)c3ccc(OCC)c(Cl)c3)cc(C(=O)O)c2)cc1Cl	12
CCN1/C(=C\C=C2\C(=O)N(C)C(=S)N2C)Sc2ccccc21	16
CCc1cc(=S)n2c([nH]c3ccccc32)c1C#N	17
CCN1C(=O)/C(=C\N(C)C)S/C1=N\S(=O)(=O)c1ccccc1	30
CC(C)c1ccc(/C=N/n2cnnc2)cc1	27
Cc1cccc(CCNC(=O)c2cc(=O)[nH]c3ccc(Br)cc23)c1	20
COCCNC(=O)C1CC(c2cccc(F)c2)=NO1 (configuration not stated)	17
CCOC(=O)c1[nH]c2ccc(OC)cc2c1NC(=O)c1ccc(OC)c(OC)c1	8
O=C(NCc1ccccc1C(F)(F)F)C1CC(c2cc(C(F)(F)F)cc(C(F)(F)F)c2)=NO1 (configuration not stated)	13
O=C1/C(=C/c2ccncc2)SC(=S)N1C1CCCCC1	-5
O=C(O)c1cc(-c2c[nH]c3ccccc23)nc2ccc3ccccc3c12	-1
